Source: PubChem BioAssay
Yeast_UUG_start: alters start codon recognition fidelity in yeast; S. cerevisiae UUG-firefly luciferase reporter, luminescence/redox ratio; activity score, % at 18.7 µM; actives 0.13% (n = 350,000);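 active means replicate mean at a twofold rise or more, about +100% in these data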;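 further: firefly luciferase made from a UUG start codon reports start codon fidelity; reporter light over untreated wells divided by growth signal over untreated wells; some hits fall short of that in this replicate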
HIV_Env_fusion: HIV envelope-mediated fusion inhibition; HeLa-JRFL Env/CEM21 cell fusion, luciferase; actives 1.1% (n = 360,000); AID 651610; inhibition, % at 12.3 µM;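 active means mean replicate inhibition score of at least 50 and every replicate individually at or above 50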;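 further: 0% = plate neutral controls and 100% = maraviroc near 300 nM; one replicate is shown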
Starred values were filed as active, the others as inactive; [ ] = remark or other dose. A portion of the library; rates above refer to the full screens.

SMILES Yeast_UUG_start HIV_Env_fusion
COc1ccc(CN(C)C[C@H]2OCCCC[C@H](C)Oc3ccc(NS(=O)(=O)c4cccs4)cc3C(=O)N([C@@H](C)CO)C[C@@H]2C)cc1 33 16[16.7_µM]
C[C@@H]1CCCCO[C@H](CN(C)C(=O)Nc2ccc(F)cc2)[C@H](C)CN([C@H](C)CO)C(=O)c2cc(NC(=O)CCC(F)(F)F)ccc2O1 7 31[16.7_µM]
C[C@H]1CN([C@@H](C)CO)S(=O)(=O)c2ccc(-c3cccc(C#N)c3)cc2O[C@@H]1CN(C)C 1 -3[16.7_µM]
Cc1ccc(S(=O)(=O)N(C)C[C@H]2OCCCC[C@H](C)Oc3ccc(NS(=O)(=O)c4cn(C)cn4)cc3C(=O)N([C@H](C)CO)C[C@@H]2C)cc1 -7 -21[16.7_µM]
C[C@@H]1CN([C@@H](C)CO)C(=O)c2cc(NC(=O)CCC(F)(F)F)ccc2O[C@@H](C)CCCCO[C@H]1CN(C)CC1CCCCC1 0 20[16.7_µM]
Cc1noc(C)c1NC(=O)N(C)C[C@H]1Oc2c(cccc2N(C)C)C(=O)N([C@@H](C)CO)C[C@H]1C -5 -50[16.7_µM]
C[C@@H]1CN([C@@H](C)CO)C(=O)c2cc(NC(=O)C3CCCCC3)ccc2O[C@@H](C)CCCCO[C@@H]1CN(C)C(=O)CCC(F)(F)F 11 13[16.7_µM]
CC(C)NC(=O)N[C@H]1CC[C@@H](CC(=O)NCc2ccc(Oc3ccccc3)cc2)O[C@@H]1CO 3 -2[16.7_µM]
O=C(N[C@H]1CC[C@@H](CCNC(=O)C2CCCCC2)O[C@H]1CO)c1ccncc1 -9 3[16.7_µM]
CCCNC(=O)N(C)C[C@H]1Oc2cc(C#CCN(C)C)ccc2S(=O)(=O)N([C@H](C)CO)C[C@H]1C 17 0[16.7_µM]
CCCC#Cc1cnc2c(c1)C(=O)N([C@@H](C)CO)C[C@@H](C)[C@H](CN(C)S(=O)(=O)c1cn(C)cn1)O2 25 -21[16.7_µM]
COc1ccc(S(=O)(=O)Nc2ccc3c(c2)C(=O)N([C@@H](C)CO)C[C@H](C)[C@@H](CN(C)S(=O)(=O)c2c(C)noc2C)OCCCC[C@@H](C)O3)cc1 25 -37[16.7_µM]
COc1ccc(NC(=O)Nc2ccc3c(c2)C(=O)N([C@H](C)CO)C[C@@H](C)[C@@H](CN(C)Cc2ccc(C(=O)Nc4ccccc4N)cc2)O3)cc1 -4 44[16.7_µM]
C[C@@H]1CN([C@H](C)CO)S(=O)(=O)c2ccc(-c3cncnc3)cc2O[C@H]1CN(C)Cc1ccncc1 -16 -5[16.7_µM]
COc1ccc(S(=O)(=O)Nc2ccc3c(c2)CC(=O)N([C@H](C)CO)C[C@H](C)[C@H](CN(C)CC2CCCCC2)O3)cc1 0 -10[16.7_µM]
Cc1noc(C)c1S(=O)(=O)Nc1cccc2c1O[C@@H](CN(C)CC1CC1)[C@@H](C)CN([C@H](C)CO)C2=O -1 -4[16.7_µM]
C[C@@H]1CCCCO[C@@H](CN(C)CC2CCCCC2)[C@@H](C)CN([C@H](C)CO)C(=O)c2cc(NC(=O)Nc3ccc(C(F)(F)F)cc3)ccc2O1 6 -1[16.7_µM]
C/C=C/c1ccc2c(c1)O[C@@H](CN(C)C)[C@@H](C)CN([C@@H](C)CO)S2(=O)=O -9 -1[16.7_µM]
COc1ccc(CNC(=O)C[C@@H]2C[C@@H]3c4cc(NC(=O)CN(C)C)ccc4O[C@@H]3[C@H](CO)O2)cc1 -5 -10[16.7_µM]
CN1C(=O)c2cc(NC(=O)c3cc(F)cc(F)c3)ccc2OC[C@@H]2O[C@H](CC(=O)O)CC[C@@H]21 -4 -9[16.7_µM]
CC(C)NC(=O)N[C@@H]1CC[C@H](CC(=O)N2CCCCC2)O[C@H]1CO -2 -15[16.7_µM]
CO[C@@H]1CN(C)C(=O)c2ccc(NC(C)=O)cc2OC[C@H](C)N(C(=O)C2CCC2)C[C@@H]1C 2 31[16.7_µM]
C[C@H](CO)N1C[C@H](C)[C@H](CN(C)Cc2ccc(C(F)(F)F)cc2)Oc2c(NC(=O)c3cnccn3)cccc2C1=O 11 20[16.7_µM]
CO[C@@H]1CN(C)C(=O)c2ccc(NC(=O)Nc3ccccc3)cc2OC[C@H](C)N(C(C)=O)C[C@H]1C 17 -3[16.7_µM]
C[C@@H]1CN([C@@H](C)CO)C(=O)c2cc(NC(=O)Nc3ccc(C(F)(F)F)cc3)ccc2O[C@@H](C)CCCCO[C@@H]1CN(C)CC1CCCCC1 9 1[16.7_µM]

Among those listed so far, these contain fluorine:
SMILES Yeast_UUG_start HIV_Env_fusion
C[C@@H]1CCCCO[C@H](CN(C)C(=O)Nc2ccc(F)cc2)[C@H](C)CN([C@H](C)CO)C(=O)c2cc(NC(=O)CCC(F)(F)F)ccc2O1 7 31[16.7_µM]
C[C@@H]1CN([C@@H](C)CO)C(=O)c2cc(NC(=O)CCC(F)(F)F)ccc2O[C@@H](C)CCCCO[C@H]1CN(C)CC1CCCCC1 0 20[16.7_µM]
C[C@@H]1CN([C@@H](C)CO)C(=O)c2cc(NC(=O)C3CCCCC3)ccc2O[C@@H](C)CCCCO[C@@H]1CN(C)C(=O)CCC(F)(F)F 11 13[16.7_µM]
C[C@@H]1CCCCO[C@@H](CN(C)CC2CCCCC2)[C@@H](C)CN([C@H](C)CO)C(=O)c2cc(NC(=O)Nc3ccc(C(F)(F)F)cc3)ccc2O1 6 -1[16.7_µM]
CN1C(=O)c2cc(NC(=O)c3cc(F)cc(F)c3)ccc2OC[C@@H]2O[C@H](CC(=O)O)CC[C@@H]21 -4 -9[16.7_µM]
C[C@H](CO)N1C[C@H](C)[C@H](CN(C)Cc2ccc(C(F)(F)F)cc2)Oc2c(NC(=O)c3cnccn3)cccc2C1=O 11 20[16.7_µM]
C[C@@H]1CN([C@@H](C)CO)C(=O)c2cc(NC(=O)Nc3ccc(C(F)(F)F)cc3)ccc2O[C@@H](C)CCCCO[C@@H]1CN(C)CC1CCCCC1 9 1[16.7_µM]

Following part
SMILES Yeast_UUG_start HIV_Env_fusion
Cc1ccc(S(=O)(=O)Nc2ccc3c(c2)C(=O)N([C@H](C)CO)C[C@H](C)[C@H](CN(C)C(=O)NC2CCCCC2)OCCCC[C@H](C)O3)cc1 1 -156[16.7_µM]
C[C@@H]1CN([C@@H](C)CO)C(=O)c2cc(C#C[C@@H](C)O)cnc2O[C@H]1CN(C)Cc1ccccn1 -5 -14[16.7_µM]
CS(=O)(=O)N1[C@@H](C#N)[C@@H](c2ccc(-c3ccccc3F)cc2)[C@@H]1CO 4 14[16.7_µM]
C[C@H]1CN([C@@H](C)CO)S(=O)(=O)c2ccc(C#Cc3cccnc3)cc2O[C@H]1CN(C)C(=O)C1CC1 4 0[16.7_µM]
O=C(Nc1ccc(F)cc1)N[C@@H]1CC[C@@H](CCn2cc(C3(O)CCCC3)nn2)O[C@@H]1CO -9 -8[16.7_µM]
C[C@H](CO)N1C[C@H](C)[C@@H](CN(C)S(C)(=O)=O)Oc2ccc(NC(=O)Cn3cnnn3)cc2CC1=O -17 1[16.7_µM]
Cc1noc(C)c1NC(=O)Nc1ccc2c(c1)C(=O)N([C@H](C)CO)C[C@H](C)[C@H](CN(C)C(=O)NC1CCCCC1)OCCCC[C@H](C)O2 3 -1[16.7_µM]
Cc1noc(C)c1S(=O)(=O)Nc1ccc2c(c1)CC(=O)N([C@H](C)CO)C[C@@H](C)[C@@H](CN(C)Cc1ccc(Cl)c(Cl)c1)O2 15 -14[16.7_µM]
CCC(=O)N1C[C@@H](C)[C@@H](OC)CN(C)C(=O)c2cc(NC(=O)c3ccc(F)cc3)ccc2OC[C@H]1C -7 12[16.7_µM]
COc1ccc(C#Cc2cnc3c(c2)C(=O)N([C@H](C)CO)C[C@H](C)[C@@H](CN(C)C)O3)cc1 5 6[16.7_µM]
C[C@H](CO)N1C[C@H](C)[C@H](CN(C)Cc2ccccc2)OCCCC[C@H](C)Oc2ccc(NC(=O)Nc3cccc4ccccc34)cc2C1=O 8 114*[16.7_µM]
C[C@@H]1CN([C@H](C)CO)S(=O)(=O)c2ccc(-c3ccccc3)cc2O[C@H]1CN(C)Cc1ccccc1C(=O)O 8 -22[16.7_µM]
COc1ccc(S(=O)(=O)N(C)C[C@H]2OCCCC[C@H](C)Oc3ccc(NC(=O)Nc4ccc(F)cc4)cc3C(=O)N([C@H](C)CO)C[C@@H]2C)cc1 -13 3[16.7_µM]
Cc1ccc(S(=O)(=O)Nc2ccc3c(c2)C(=O)N([C@H](C)CO)C[C@H](C)[C@@H](CN(C)Cc2ccc(C(=O)O)cc2)O3)cc1 -10 -25[16.7_µM]
COc1ccc(S(=O)(=O)N(C)C[C@@H]2Oc3cc(C#CC4CCCCC4)ccc3S(=O)(=O)N([C@H](C)CO)C[C@@H]2C)cc1 -25 20[16.7_µM]
COCC(=O)Nc1ccc2c(c1)C(=O)N(C)C[C@H](OC)[C@H](C)CN(Cc1ccncc1)[C@@H](C)CO2 0 -12[16.7_µM]
C[C@H]1CCCCO[C@H](CN(C)Cc2ccc3c(c2)OCO3)[C@@H](C)CN([C@@H](C)CO)C(=O)c2cc(NS(C)(=O)=O)ccc2O1 2 8[16.7_µM]
C[C@@H]1CN([C@H](C)CO)C(=O)c2cc(NC(=O)C3CCCCC3)ccc2O[C@@H](C)CCCCO[C@@H]1CN(C)C(=O)NC1CCCCC1 3 -9[16.7_µM]
CCNC(=O)C[C@@H]1C=C[C@@H](NC(=O)C2CCC2)[C@@H](CO)O1 -2 -12[16.7_µM]
C/C=C/c1cnc2c(c1)C(=O)N([C@H](C)CO)C[C@@H](C)[C@H](CN(C)S(=O)(=O)c1ccc(C)cc1)O2 8 17[16.7_µM]
C[C@@H](NC(=O)C[C@@H]1CC[C@H](NC(=O)CN2CCOCC2)[C@@H](CO)O1)c1ccccc1 -13 23[16.7_µM]
COc1ccc(NC(=O)Nc2ccc3c(c2)C(=O)N([C@H](C)CO)C[C@H](C)[C@H](CN(C)S(=O)(=O)c2ccc(Cl)cc2)OCCCC[C@@H](C)O3)cc1 -7 -18[16.7_µM]
COc1ccc(NC(=O)N(C)C[C@H]2OCCCC[C@@H](C)Oc3ccc(NC(=O)c4ccccc4)cc3C(=O)N([C@@H](C)CO)C[C@H]2C)cc1 14 -9[16.7_µM]
C[C@H](CO)N1C[C@H](C)[C@@H](CN(C)Cc2ccccc2)OCCCC[C@H](C)Oc2ccc(NC(=O)NC3CCCCC3)cc2C1=O 21 -9[16.7_µM]
C[C@@H]1CCCCO[C@H](CN(C)C)[C@@H](C)CN([C@@H](C)CO)C(=O)c2cc(NC(=O)Nc3ccccc3)ccc2O1 9 -2[16.7_µM]

A draw from above in order of molar mass, high to low:
SMILES Yeast_UUG_start HIV_Env_fusion
COc1ccc(NC(=O)Nc2ccc3c(c2)C(=O)N([C@H](C)CO)C[C@H](C)[C@H](CN(C)S(=O)(=O)c2ccc(Cl)cc2)OCCCC[C@@H](C)O3)cc1 -7 -18[16.7_µM]
C[C@@H]1CCCCO[C@H](CN(C)C)[C@@H](C)CN([C@@H](C)CO)C(=O)c2cc(NC(=O)Nc3ccccc3)ccc2O1 9 -2[16.7_µM]
CS(=O)(=O)N1[C@@H](C#N)[C@@H](c2ccc(-c3ccccc3F)cc2)[C@@H]1CO 4 14[16.7_µM]

Further entries
SMILES Yeast_UUG_start HIV_Env_fusion
COc1ccc(S(=O)(=O)N(C)C[C@H]2OCCCC[C@H](C)Oc3ccc(NC(=O)Nc4ccccc4)cc3C(=O)N([C@@H](C)CO)C[C@H]2C)cc1 -16 1[16.7_µM]
C[C@@H]1CCCCO[C@H](CN(C)Cc2ccccc2)[C@@H](C)CN([C@H](C)CO)C(=O)c2cc(NC(=O)Nc3ccc4c(c3)OCO4)ccc2O1 2 7[16.7_µM]
Cc1ccc(S(=O)(=O)N[C@@H]2CC[C@H](CCn3cc(C4CC4)nn3)O[C@H]2CO)cc1 -5 -16[16.7_µM]
Cc1noc(C)c1NC(=O)N(C)C[C@@H]1OCCCC[C@@H](C)Oc2ccc(NC(=O)CCCCCC(=O)Nc3ccccc3N)cc2C(=O)N([C@H](C)CO)C[C@@H]1C -4 4[16.7_µM]
Cc1noc(C)c1NC(=O)Nc1ccc2c(c1)C(=O)N([C@H](C)CO)C[C@@H](C)[C@H](CN(C)S(=O)(=O)c1c(C)noc1C)OCCCC[C@@H](C)O2 16 -16[16.7_µM]
CC(C)NC(=O)N[C@@H]1CC[C@H](CC(=O)NCc2ccc(Oc3ccccc3)cc2)O[C@@H]1CO 30 19[16.7_µM]
CN(C)CCCNC(=O)C[C@H]1CC[C@H](NC(=O)c2ccccc2F)[C@H](CO)O1 -27 -10[16.7_µM]
O=C(NC1CCCCC1)N[C@H]1CC[C@H](CCNS(=O)(=O)c2ccc(F)cc2)O[C@H]1CO 1 15[16.7_µM]
C[C@@H]1CN([C@H](C)CO)C(=O)c2cc(C3=CCCCC3)cnc2O[C@@H]1CN(C)S(=O)(=O)c1cn(C)cn1 3 -11[16.7_µM]
O=C(N[C@@H]1CC[C@H](CCn2cc(C3(O)CCCC3)nn2)O[C@H]1CO)c1ccccc1F -4 8[16.7_µM]
C[C@@H]1CN([C@@H](C)CO)C(=O)c2cc(-c3cccnc3)cnc2O[C@@H]1CN(C)C -10 -41[16.7_µM]
O=C(O)C[C@H]1C[C@H]2c3cc(NC(=O)Nc4ccccc4F)ccc3O[C@H]2[C@H](CO)O1 -3 5[16.7_µM]
CN(C)CCCNC(=O)C[C@H]1CC[C@H]2[C@@H](COC[C@H](O)CN2C(=O)c2ccncc2)O1 31 -15[16.7_µM]
Cc1noc(C)c1NC(=O)N(C)C[C@H]1OCCCC[C@@H](C)Oc2ccc(NC(=O)c3ccccc3)cc2C(=O)N([C@@H](C)CO)C[C@H]1C -2 -4[16.7_µM]
CCC(=O)N(C)C[C@@H]1Oc2cc(-c3ccccc3OC)ccc2S(=O)(=O)N([C@H](C)CO)C[C@H]1C 1 -23[16.7_µM]
